KCNQ2 pot – KCNQ2 (rat) channel potentiation; O88943; CHO-K1 KCNQ2, FluxOR thallium flux fluorescence; hits give high values; B-score at 10 µM; 310,000 tested, 0.54% active; AID 2239;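 active = fluorescence ratio B-score at least 3 SD of library B-scores, with initial fluorescence B-score within 3 SD, cut at about 5.3 in these data; same plate scores as AID 2156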;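 also: B-score of peak minus minimum over baseline fluorescence ratio after K+ and Tl+ stimulus; positive B-score means potentiation of KCNQ2 with more thallium influx and brighter signal; only the inactives scoring about 0 or higher are listed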
Target sequence (O88943 whole entry, looked up): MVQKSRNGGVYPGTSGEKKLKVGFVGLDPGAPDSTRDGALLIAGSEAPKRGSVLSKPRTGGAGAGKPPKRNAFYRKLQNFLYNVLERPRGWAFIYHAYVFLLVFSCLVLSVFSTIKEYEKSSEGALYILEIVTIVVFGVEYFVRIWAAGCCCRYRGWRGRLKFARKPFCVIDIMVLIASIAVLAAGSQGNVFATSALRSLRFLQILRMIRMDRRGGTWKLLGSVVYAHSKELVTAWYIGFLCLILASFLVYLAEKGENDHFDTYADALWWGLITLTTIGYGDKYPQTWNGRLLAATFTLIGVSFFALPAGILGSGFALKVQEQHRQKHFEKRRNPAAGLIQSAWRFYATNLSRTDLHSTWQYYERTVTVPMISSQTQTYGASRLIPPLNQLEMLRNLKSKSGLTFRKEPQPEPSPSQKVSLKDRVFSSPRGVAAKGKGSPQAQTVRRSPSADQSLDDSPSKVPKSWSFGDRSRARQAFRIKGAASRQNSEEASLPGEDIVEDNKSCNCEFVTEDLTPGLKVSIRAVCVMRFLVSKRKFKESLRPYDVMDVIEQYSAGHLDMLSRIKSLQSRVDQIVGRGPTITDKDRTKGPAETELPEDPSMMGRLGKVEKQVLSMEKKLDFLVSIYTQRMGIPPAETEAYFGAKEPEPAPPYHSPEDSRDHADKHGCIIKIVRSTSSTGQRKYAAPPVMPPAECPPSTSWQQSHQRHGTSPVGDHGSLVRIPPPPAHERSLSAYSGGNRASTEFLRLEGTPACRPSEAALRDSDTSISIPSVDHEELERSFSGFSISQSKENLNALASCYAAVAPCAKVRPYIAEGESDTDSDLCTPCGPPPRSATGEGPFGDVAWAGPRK
KCNQ2 pot baseline – second read-out of KCNQ2 pot, no call of its own (marks repeat the call); B-score; compound at 10 µM; measured here: initial fluorescence intensity artifact check;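 brightness before thallium and not channel activity; 0 = typical well and far values either way flag optical interference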
Numbers without * were called inactive. An excerpt; the hit share may differ from the screen's.

SMILES	KCNQ2 pot	KCNQ2 pot baseline
CC(C)COc1ccc(/C(O)=C2/C(=O)C(=O)N(CCN(C)C)C2c2ccncc2)cc1 (stereo not given)	0.13	0.6
CNc1nc(-c2ccc(Cl)cc2)cs1	0.65	-1.3
CC1(C)Cc2c(c(N3CCOCC3)nc3sc(C(=O)N4CCCCC4)c(N)c23)CO1	2	-3.4
c1ccc(COc2cccc(CNCc3cccnc3)c2)cc1	0.47	-0.03
O=C(NCC1CCCO1)c1onc(CSc2ccc(Cl)cc2)c1C(=O)O (stereo not given)	1.6	-1.2
C=CCSc1nsc(N)n1	2.3	0.46
CCC(C)c1ccc(OCC(=O)Nc2cccc(C(=O)Nc3ccc(C(=O)O)cc3)c2)cc1 (stereo not given)	1.7	-0.11
Cc1onc(-c2c(Cl)cccc2Cl)c1C(=O)N[C@@H]1C(=O)N2[C@@H]1SC(C)(C)[C@@H]2C(=O)O	0.52	-1.3
CC(C)C(=O)NC(=S)Nc1ccc(S(=O)(=O)N2CCCC2)cc1	0.23	0.23
CC(Nc1nc(C(F)(F)F)nc2ccccc12)c1cccs1 (stereo not given)	0.25	-0.06
COc1cccc(NC(=O)Nc2ccc(C)c(Cl)c2)c1	0.96	0.67
Cc1ccc(C(=O)NCc2ccc3c(c2)OCO3)cc1S(=O)(=O)N1CCOCC1	0.52	0.49
COC(=O)c1[nH]c2c(c1C)C(=O)CC(c1cc(OC)ccc1OC)C2 (stereo not given)	0.09	-2.3
Cc1ccccc1CS(=O)(=O)Cc1ccc(C(=O)NCc2cccnc2)o1	0.85	0.65
O=C(NCC(=O)N(Cc1ccccc1)C(C(=O)NC1CCCC1)c1ccncc1)c1ccco1 (stereo not given)	0.66	-0.04
COc1ccc2c(c1)c1ncn(CCN3CCNCC3)c(=O)c1n2C	0.12	-0.01
O=C(NCc1cccc(OC(F)(F)F)c1)C1CCC(=O)N(Cc2cccc(F)c2)C1 (stereo not given)	0.1	-0.57
CC(=O)OC(C(=O)n1nc(C)cc1C)c1ccccc1 (stereo not given)	0.63	-0.64
O=c1cc(CSc2ccc(Cl)cc2)nc(-c2ccncc2)[nH]1	0.34	0.48
CSc1nc2ccc(S(=O)(=O)NC3CCCCC3)cc2s1	0.21	-1.4
Cc1c(C(=O)OC2CCCCC2)[nH]c2c1C(=O)CC(C)(C)C2	0.65	-0.33
O=C(CCCCC(=O)NCCc1ccccc1)NCCc1ccccc1	0.71	2
CCN1CCN(C(=S)Nc2ccc3nc(N4CCN(CC)CC4)cc(C)c3c2)CC1	1.3	-0.11
CCOC(=O)c1c(NC(C)=O)sc2c(OCCN(CC)CC)c(Br)ccc12	2.8	-2.7
O=C(Nc1ccccc1CC[N+](=O)[O-])N1CCN(c2ccccc2)CC1	0.43	-1.2

An excerpt from above in order of the KCNQ2 pot value, lowest first:
Molecule	KCNQ2 pot	KCNQ2 pot baseline
CC(Nc1nc(C(F)(F)F)nc2ccccc12)c1cccs1 (stereo not given)	0.25	-0.06
O=C(NCC(=O)N(Cc1ccccc1)C(C(=O)NC1CCCC1)c1ccncc1)c1ccco1 (stereo not given)	0.66	-0.04
CC1(C)Cc2c(c(N3CCOCC3)nc3sc(C(=O)N4CCCCC4)c(N)c23)CO1	2	-3.4

(continued)
SMILES	KCNQ2 pot	KCNQ2 pot baseline
COc1cc(OC)c(C(=O)OCCCOC(=O)c2cc(OC)c(OC)cc2OC)cc1OC	0.9	-1.1
COc1ccc(OC)c(N(CC(=O)Nc2ccccc2)S(=O)(=O)c2ccccc2)c1	2.2	-0.65
CCOC(=O)c1cc2sc(C)cc2n1CC(=O)N1CCc2ccccc21	0.72	-0.49
CCC(=O)N1CCCn2c1nc1ccccc12	0.3	-0.34
Cc1ccc(/C=[N+](/C)[O-])cc1	0.11	-0.27
NC(=O)c1nsc(C(=O)N(c2ccccc2)C(C(=O)NCc2ccc(F)cc2)c2ccco2)c1N (stereo not given)	0.47	-0.66
CCOC(=O)c1[nH]c(C)c(CN(CCc2ccccc2)S(C)(=O)=O)c1C	0.67	0.01
COc1ccc(-c2ncncc2-c2csc(C)n2)c(O)c1	1.2	0
O=C(CCNC(=O)N1CC(=O)Nc2ccccc21)NCCc1cccc(F)c1	0.14	-1
O=C(Nc1ccccc1C(F)(F)F)C1CCCC1	0.19	-0.02
CCOc1ccccc1CNC(=O)c1ccc(NC(=O)C2=CSCCO2)cc1	0.4	0.06
Cc1cc(C(=O)CSc2nnc(-c3ccccc3)n2Cc2ccc3c(c2)OCO3)c(C)n1C	0.19	-0.03
O=C(NC1CCCCC1)C(c1ccc(F)cc1)N(CCCN1CCOCC1)C(=O)c1ccc(CN2CCOCC2)o1 (stereo not given)	0.14	-0.85
CC(=O)c1ccc(N2CCN(C(=O)CCCn3c(=O)[nH]c4ccsc4c3=O)CC2)cc1	0.93	0.21
CSC(=S)N/N=C/c1ccc(Br)cc1	7.1*	0.04*
CCc1ccc(Nc2cnn(C34CC5CC(CC(CC(=O)O)(C5)C3)C4)c(=O)c2Cl)cc1	1.1	-0.04
Cn1nc(C(F)(F)F)c(-c2ccc(F)cc2)c1NC(=O)CSCC(=O)O	0.28	0.26
Cc1ccc(C(=O)NC(=S)Nc2ccc(N3CCOCC3)cc2)cc1	0.63	-0.97
Cc1nc(SCC(N)=O)[nH]c(=O)c1Cc1ccc(OC(C)C)cc1	0.13	-2
NNC(=O)c1ccc(Cl)cc1Cl	2	0.7
O=C(OCC(=O)N1CCOCC1)c1ccc(O)cc1	0.99	-0.42
Cc1nc(Nc2ccc(O)cc2)c2c3c(sc2n1)CCCC3	1.8	0.65
C=C(C)COc1ccc2c(CC)cc(=O)oc2c1C	0.05	-0.6
O=C1/C(=C\Nc2ccccc2)CCN1c1ncccn1	0.27	1.8
CC(C)N=C1NN=C(c2cccs2)C(CC(=O)O)S1 (stereo not given)	0.11	1.2

Four structures out of the list, ordered by molecular weight, falling:
SMILES	KCNQ2 pot	KCNQ2 pot baseline
COc1cc(OC)c(C(=O)OCCCOC(=O)c2cc(OC)c(OC)cc2OC)cc1OC	0.9	-1.1
O=C(CCNC(=O)N1CC(=O)Nc2ccccc21)NCCc1cccc(F)c1	0.14	-1
O=C1/C(=C\Nc2ccccc2)CCN1c1ncccn1	0.27	1.8
Cc1ccc(/C=[N+](/C)[O-])cc1	0.11	-0.27

(cont.)
SMILES	KCNQ2 pot	KCNQ2 pot baseline
CC(NS(=O)(=O)c1ccc2c(c1)CC(=O)N2C)c1ccccc1 (stereo not given)	0.22	-1.7
O=C(Nc1ccc2oc(-c3cccnc3)nc2c1)c1cc2ccccc2o1	0.06	-1.6
CCc1ccc(C(=O)c2cncc(Br)c2)cc1	1	1.1
CCOc1ccc(CCNC(=O)c2cccc(S(=O)(=O)N3CCCC3)c2)cc1OCC	0.85	0.51
O=C(Nc1cccc(Cl)c1)NC1(C(=O)NCc2cccs2)CCCCC1	0.01	-0.09
COc1cc2c(c(OC)c1)C(c1cccc(OC)c1OC)CC(=O)N2 (stereo not given)	0.48	-0.81
O=C(Nc1ccc(S(=O)(=O)NCC2CCCO2)cc1)c1cccc(F)c1 (stereo not given)	1.8	-0.03
COC(=O)c1c(N)c(C#N)c(C)n1-c1ccccc1	2.6	-1.2
COC(=O)c1ccc(/C=N/NC(=O)C2CC(=O)N(c3ccc(OC)cc3)C2)cc1 (stereo not given)	0.32	-2.8
c1ccc(-c2ccc(-n3ccnc3)cc2)cc1	1.1	0.01
O=C(O)CC1(CC(=O)NCc2cc(F)cc3c2OCOC3)CCCCC1	0.74	0.22
O=C(NCCCn1ccnc1)c1csc2ccccc12	0.88	1.8
COc1ccc(S(=O)(=O)Nc2ccccc2C(=O)N2CCOCC2)cc1Br	0.11	0.85
CCOC(=O)N1CCC(N2CCCC(C(=O)c3cc(F)ccc3OC)C2)CC1 (stereo not given)	1.1	1.2
O=C(CNC(=O)c1ccco1)NCC(=O)OCc1ccc(C(=O)Oc2ccc(Cl)cc2)cc1	0.33	-0.55
O=C(O)C1CC=CCC1C(=O)NCc1ccc(Cl)c(Cl)c1 (stereo not given)	0.7	1
COc1ccc(F)cc1S(=O)(=O)NCc1ccccc1	1.1	0.52
COC(=O)c1sc(NC(=S)NC(=O)c2ccc(C)cc2)nc1C	3.4	1.1
O=C(CSc1nnc(CCCN2C(=O)c3cccc4cccc(c34)C2=O)n1-c1ccccc1)N1CCN(CCO)CC1	0.78	0.52
CNC(=O)C1CCC(=O)N1Cc1ccccc1Cl (stereo not given)	0.82	-0.53
O=S(=O)(NCC(c1cccnc1)N1CCN(c2ccccc2)CC1)c1cc(F)ccc1F (stereo not given)	1.5	-2.4
O=C(Nc1ccccc1)Nc1ccc(Cl)nc1Cl	0.13	-0.7
N#C/C(=C(/O)C(Cl)(Cl)Cl)c1nc2ccccc2[nH]1	0.05	-1.8
CC(C)n1nnnc1-c1cccc(Cl)c1	1.4	-1.2
COc1ccc(OC)c(NC(=O)CC2SC(=Nc3ccccc3)N(CCc3ccccn3)C2=O)c1 (stereo not given)	0.19	-1.4

Of the compounds above, two contain a cyano group:
SMILES	KCNQ2 pot	KCNQ2 pot baseline
COC(=O)c1c(N)c(C#N)c(C)n1-c1ccccc1	2.6	-1.2
N#C/C(=C(/O)C(Cl)(Cl)Cl)c1nc2ccccc2[nH]1	0.05	-1.8

Next part.
SMILES	KCNQ2 pot	KCNQ2 pot baseline
CC1CC(Nc2ccccc2)=NC1(C)C (stereo not given)	0.04	-0.42
N#C/C(=C\Nc1ccc2c(c1)OCCO2)C(=O)NCc1ccco1	2.1	-0.97
CCOC(=O)c1ccc(NC(=O)CC2SC(=NC)N(C)C2=O)cc1 (stereo not given)	0.67	-1.1
CCOC(=O)C1CCN(c2c(NCc3ccc(C(=O)NCCOC)cc3)c(=O)c2=O)CC1	0.97	0
NC(=S)Nn1c(-c2ccccc2)nc2ccccc2c1=O	0.01	-0.08
O=C(Cn1c(NCCO)nc2ccccc21)NCC1CCCO1 (stereo not given)	0.86	0.13
CCC(=O)N1c2ccccc2NC2=C(C(=O)CC(c3ccco3)C2)C1c1ccco1 (stereo not given)	0.19	-0.77
COc1ccc(N(Cc2cc3ccccc3[nH]c2=O)S(=O)(=O)c2ccc(OC)cc2)cc1	0.32	-0.97
CN(C)CCCNc1ncnc2c1c(-c1ccccc1)cn2-c1ccccc1	0.61	0.03
C=CCc1cc(Cl)ccc1OCCNCCCOC	0.02	-0.22
CCNC(=S)N1CCN(CCN2C(=O)c3cccc4cccc(c34)C2=O)CC1	1.3	-0.74
CCN1CCN(c2nc(NCCO)c3ccccc3n2)CC1	2	-1.2
Cc1ccnc(N2CCCC(C(=O)NC3CC3)C2)n1 (stereo not given)	0.05	2.9
COC(=O)c1cc(OC)c(OC)cc1NC(=O)Nc1ccc(OC)cc1	0.05	0.29
COc1ccc(O)c(C(=O)CC(=O)c2ccc(F)cc2)c1	0.79	-0.34
O=C(/C(=C\c1ccccc1)c1nc2ccccc2[nH]1)c1ccc(Cl)cc1	0.99	-0.01
O=C(Nc1ccc(Cl)c(S(=O)(=O)N2CCOCC2)c1)c1ccccn1	0.57	0.03
CN(C)C1NC(=O)c2cc(-c3ccccc3)sc2N1 (stereo not given)	1.9	0.62
CC(C)Cc1nc2sc3c(=O)n(N)cnc3c2c2c1COC(C)(C)C2	1.4	0.2
CCOC(=O)N1CCN(C(=O)c2cccc(S(=O)(=O)Nc3ccc(Br)cc3)c2)CC1	4.2	-1.4
O=C(CSc1nncs1)Nc1cc(-c2ccccc2)nn1-c1ccccc1	0.48	0.68
O=C(CSC1=NS(=O)(=O)c2cc(F)ccc2N1)NCCc1ccccc1	0.44	1.6
O=C(Nc1cccc(F)c1)Nc1ccc2c(c1)CCC2	3.8	-1.9
COc1ccc(CNC(=O)[C@H](C)NC(=O)C2CCN(S(=O)(=O)c3ccc(F)cc3)CC2)cc1	0.68	-2.1
Cc1ccc(S(=O)(=O)N(Cc2cccc(C(F)(F)F)c2)C(=O)N2CCN(C)CC2)cc1	1.2	0.52
Following part
SMILES	KCNQ2 pot	KCNQ2 pot baseline
CCOC(=O)C(C)Sc1ncc(OC)c(=O)[nH]1 (stereo not given)	0.12	2.5
NC(=O)c1c(-c2ccc(Cl)cc2Cl)csc1NC(=O)Cc1ccccc1	3.1	-1.6
COc1cc(/C=N/NC(=O)c2cccnc2)ccc1OCC(=O)Nc1ccc(C)cc1	0.93	2.3
Cc1cc(C(F)(F)F)nn1CC(=O)N(C)c1ccccc1	0.5	-0.8
O=C(c1ccc(Cl)s1)N1CCOCC1	0.09	1.3
Cc1ccc(OCC(=O)Oc2cccc(C)c2)cc1	1.2	1.7
N#CCc1ccc(NC(=O)c2ccc(CN3CCc4ccccc4C3)cc2)cc1	0.36	1.2
CCCc1cc(=O)[nH]c2nnc(SCC(=O)Nc3nnc(CC)s3)n12	1.2	-1.6
c1ccc(N2CCN(c3ncnc4sc5c(c34)CCC5)CC2)cc1	0.37	0.95
Cn1c(NCCCO)nc2ccccc21	0.41	-1
O=C(Oc1ccc(N(Cc2cccs2)C2=NS(=O)(=O)c3ccccc32)cc1)c1ccccc1F	2.4	-0.52
Cc1nc(CCN2C(=O)c3ccccc3C2=O)cs1	0.52	0.48
Cc1ccc(NC(=S)N(CCCN2CCOCC2)Cc2ccccn2)cc1	0.44	-1.9
O=C(Cc1ccccc1)Nc1ccc2c(c1)C(=O)N(CC1CCCO1)C2=O (stereo not given)	0.88	-0.53
COCCNS(=O)(=O)c1cc2[nH]c3c(c2cc1C)C(=O)CC(C)(C)C3	0.8	1.7
CC1CN(C(=O)CN2C(=O)NC(C)(c3ccccc3)C2=O)CC(C)O1 (stereo not given)	0.55	-0.01
COc1ccc(NC(=O)c2cnc(SC)nc2C)c(OC)c1	0.03	-0.81
Cc1cccc(OCCCC(=O)NCCc2ccccc2)c1	0.41	-0.33
NC(=O)CC(NC(=O)Cc1ccc(Br)cc1)c1ccc(NCc2ccccn2)c([N+](=O)[O-])c1 (stereo not given)	0.21	0.24
CCN(CC)c1cc(C(F)(F)F)nc(-c2ccccn2)n1	1.3	1.8
CCc1ccc(CNn2cnnc2SCC(=O)NC(C)(C)C)cc1	0.58	0.85

Screens as filed in PubChem.
